AmpC nodet inh = blocks E. coli AmpC beta-lactamase in absence of detergent; hit rate 1.8% among 71,000; AmpC nitrocefin hydrolysis, absorbance 480 nm, no detergent; potencies from a single point are estimates; Potency, µM (highest dose often 28.7 µM), inactives show at the top dose activity change, negative = inhibition; P00811; active = falling curve, for most hits resting on a single point; inconclusive = weak or doubtful change; inactive = flat or rising curve; further: % of control where 0% means no effect; about half of the hits show no inhibition at the top dose; a quarter of the inactives give rising signals
Target sequence (P00811 whole entry, looked up): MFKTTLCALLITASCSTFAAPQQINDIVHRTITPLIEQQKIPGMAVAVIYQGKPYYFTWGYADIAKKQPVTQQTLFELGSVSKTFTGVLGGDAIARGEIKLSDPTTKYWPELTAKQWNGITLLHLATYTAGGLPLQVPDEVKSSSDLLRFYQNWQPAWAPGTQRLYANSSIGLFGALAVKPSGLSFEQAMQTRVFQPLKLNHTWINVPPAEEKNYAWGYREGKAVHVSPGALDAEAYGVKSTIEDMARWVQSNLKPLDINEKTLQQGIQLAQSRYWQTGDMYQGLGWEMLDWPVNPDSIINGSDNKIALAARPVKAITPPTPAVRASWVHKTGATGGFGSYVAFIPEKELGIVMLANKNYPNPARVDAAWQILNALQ
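Enzyme, pH 7.0 phosphate. Compound titrations were pre-incubated with AmpC for 15 min at room temperature before nitrocefin (stock 800 uM) addition; product formation was recorded at 480 nm every 20 s for 4 min.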
An asterisk follows results filed as active; [ ] = remark or other dose. Potency means the concentration at half of the fitted maximal effect. Not all compounds are listed; the hit share may differ from the screen's.

mol,AmpC nodet inh
COc1ccc(N2C(=O)CC(N3CCC(C(N)=O)CC3)C2=O)cc1 (centres undefined),-5%
O=c1c2cc3c(cc2[nH]c(=S)n1Cc1ccco1)OCO3,-7%
COC(=O)C1Cc2c([nH]c3ccccc23)CN1 (centres undefined),14%
Cc1cccc2cc(CN(CCN3CCOCC3)C(=O)Nc3ccccc3F)c(=O)[nH]c12,106%
COc1cccc(Cn2nnc(C(=O)Nc3ccc(C)cc3)c2N)c1,4µM*[single pt active]
COC(=O)c1oc2ccc(Br)cc2c1NC(=O)CCCN1C(=O)c2ccccc2C1=O,8%
c1ccc(COc2nsnc2N2CCOCC2)cc1,12%
COc1cc(C2=NOC(C(=O)N3CCCCCC3)C2)cc(OC)c1OC (centres undefined),49%
Cc1nnc(NC(=O)CSc2cn(CCNC(=O)c3ccccc3)c3ccccc23)s1,-5%
Cc1nnc(SCC(=O)N(C(C)C)C(C)C)nc1C,16%
CCCn1nnnc1SCC(=O)NCc1ccc2c(c1)OCO2,1%
COc1ccc(OC)c(S(=O)(=O)Nc2ccccc2C(=O)O)c1,-1%
CN1[C@@H]2CC[C@H]1CC(OC(c1ccccc1)c1ccccc1)C2 (some centres undefined),2%[5.75 µM]
CSC1=NCCN1C(=O)COc1ccc2ccccc2c1,30%
COCCNC(=O)CS(=O)(=O)Cc1nc(-c2ccc(C)cc2)oc1C,42%
O=C1Nc2ccc(S(=O)(=O)N3CCCC3)c3ccc(S(=O)(=O)N4CCCC4)c1c23,60%
Cc1ccc2cc(C)c3nnc(SCC(=O)NCc4ccco4)n3c2c1,102%
COc1ccc(C(=O)Nc2c(F)c(F)c(F)c(F)c2F)c(OC)c1,6%
CCOc1cc(C(=O)CSc2nnc(CNc3ccc(Cl)cc3)o2)ccc1NC(=O)CC,17%
COc1ncc2ncc(=O)n(CCC#N)c2n1,13%
CCc1cc2c(=O)c(-c3cscn3)coc2cc1OC,9%
CCOc1ccc2nc(N3CCC(C(=O)Nc4nnc(CC)s4)CC3)sc2c1,30%
COc1ccc(NC(=O)CCCC(=O)OCC(F)(F)C(F)F)cc1,15%
O=C1c2ccccc2-c2onc3ccc(NCCCn4ccnc4)c1c23,145%
O=C1/C(=C/Nc2ccc3c(c2)OCO3)CCc2ccccc21,-17%
COc1cc2c(C(=O)NCCCN3CCN(c4cccc(Cl)c4)CC3)cn(C)c(=O)c2cc1OC,144%
O=c1c(-c2cccc(F)c2)nc2cncnc2n1Cc1ccccc1,15%
CCOC(=O)N1CCN(c2cc(C)c(C(C)=O)cc2F)CC1,38%
Cc1ccc(-n2cccc2C(=S)N=P(N(C)C)(N(C)C)N(C)C)cc1,72%
CC(C)(C)Sc1ccc(N)nc1,-7%
COCCn1c(C)cc(C(=O)CSc2ncn[nH]2)c1C,-8%
COc1cccc(NC(=O)CSc2nnc(CNC(=O)c3ccccc3)n2C)c1,8%
CCOc1cccc2cc(-c3nnc(NCc4ccco4)s3)c(=O)oc12,15%
COC1=CC(=O)O[C@@H](/C=C/c2ccccc2)C1,23%
O=C(Cn1cccc1)N1CCN(C(c2ccccc2)c2ccccc2)CC1,51%
COc1ccccc1-n1c(=O)oc2ccc(Cl)cc2c1=O,-8%
Cc1nnc(-c2ccccc2)c[n+]1[O-],-9%
Cc1cccc(NC(=O)CNc2cc(C)ccc2C)c1,4%
Cc1cccc(N=C(N2CCOCC2)P(=O)(N2CCOCC2)N2CCOCC2)c1,37%
COc1cc(-c2nnc(-c3ccc(S(=O)(=O)c4ccccc4)cc3)o2)cc(OC)c1OC,89%
O=C(Nc1c(Cl)cccc1Cl)C1CCC1,-4%
CC(C)(C)NS(=O)(=O)c1ccc2nc(NC(=O)Cc3cccs3)sc2c1,-24%
O=C(Cn1nnc(-c2cccc(C(F)(F)F)c2)n1)NC1CCCC1,-10%
O=C(CC(SCCO)c1ccc(F)cc1)c1ccco1 (centres undefined),25%
O=C(O)c1[nH]c2c([N+](=O)[O-])cc([N+](=O)[O-])cc2c1C(=O)O,-12%[5.75 µM]
O=C(Nc1ccccc1)N1CC[C@@]2(CCCN(C(=O)Oc3ccccc3)C2)C1,36%
CCSc1nc2nc(C)cc(C)n2n1,-5%
Cc1ccc(-n2nnc3c(=O)n(CC(=O)NCC4CCCO4)cnc32)cc1 (centres undefined),9%
O=C(c1ccc(S(=O)(=O)N2CCCC2)cc1)N1CCCc2ccccc21,48%
OCCNc1ncnc2nc[nH]c12,-3%[5.75 µM]
Cn1c(CN2CCCC2)nc2cc(NC(=O)COc3ccc(Cl)cc3)ccc21,35%
CNc1ccc2oc(C[C@@H]3O[C@@]4(CC[C@H]3C)O[C@@H]([C@@H](C)C(=O)c3ccc[nH]3)[C@@H](C)C[C@H]4C)nc2c1C(=O)O,6%
CCOC(=O)c1c(-c2ccsc2)csc1N,-21%
CC(C)OCCCN1C(=O)c2ccccc2C1C(=O)NC1CCCCC1 (centres undefined),11%
O=C(O)c1cccc(N2C(=O)CSC2c2c(F)cccc2Cl)c1 (centres undefined),-7%
CCCC(=O)OCC(=O)Nc1cc(C(C)(C)C)nn1-c1ccccc1,25%
CS(=O)(=O)NCCSCc1c(F)cccc1Cl,-8%
Cc1ccc2oc(=O)n(CC(=O)O)c2c1,1%
O=C(CCCCCn1c(=O)[nH]c2ccsc2c1=O)N1CCN(C2CCCCC2)CC1,47%
Cc1ccc(OCC(O)CN2CCN(CC(O)COC(C)C)CC2)c(C(C)(C)C)c1 (centres undefined),85%

Remaining list, next part
mol,AmpC nodet inh
Nc1nc(N)c(CCCCc2ccccc2)c(N)n1,-11%[5.75 µM]
CC12CCC(C(=O)NCCCn3ccnc3)(OC1=O)C2(C)C (centres undefined),8%
COc1ccc(CCNC(=O)c2cc3ccccn3n2)c(OC)c1OC,24%
COC(=O)C1CCN(S(C)(=O)=O)CC1,-1%
NC(=O)c1cc2ccc(O)cc2oc1=NCc1ccccc1,22%
CCOc1ccc2nc(N3CCCN(C(=O)Nc4ccccc4C)CC3)c(C#N)cc2c1,45%
Cc1ccc(SCCNC(=O)C(CO)(CO)CO)cc1,2%
O=C(CSc1ncnc2c1oc1ccccc12)c1cccs1,2%
COc1cc(OC)cc(C(=O)NCCSCc2ccco2)c1,-6%
O=C(COC(=O)CSc1nnc(-c2ccc(Cl)cc2)o1)NCc1ccc2c(c1)OCO2,64%
O=C(C1CCC(C(=O)N2CCCC2)CC1)N1CCCC1 (centres undefined),-1%
CCn1cc(C(=O)N=c2sc3ccccc3n2C)c(=O)c2ccc(C)nc21,21%
CN(C)[C@@H]1C(=O)C(C(N)=O)=C(O)[C@]2(O)C(=O)C3=C(O)c4c(O)cccc4[C@@](C)(O)[C@@H]3C[C@@H]12,-3%
COC(=O)[C@H]1C(=O)[C@H](C(=O)OC)[C@@H]2CC[C@H]1N2C,0%[5.75 µM]
NCCSC(c1ccccc1)c1ccccc1,4%[5.75 µM]
CCN1CCN(CCNC(=O)c2ccc(CS(=O)(=O)c3ccccc3C)o2)CC1,-15%
O=C(NCc1ccc(F)cc1)C1CCN(S(=O)(=O)N2CCC3(CC2)OCCO3)CC1,21%
CSC1=N/C(=C\c2ccccc2F)C(=O)S1,7%
CC1CCCCN1C(=O)CN1C(=O)CN(C)C(=O)c2ccccc21 (centres undefined),9%
CCc1nnc(NC(=O)CSc2nnc(Cc3cccn3C)n2CCOC)s1,2%
CC1CCCCC1NC(=O)C1CCN(S(=O)(=O)N2CCC3(CC2)OCCO3)CC1 (centres undefined),27%
CN(C)CCN1C(=O)C(O)=C(C(=O)c2cc3ccccc3o2)C1c1ccc(N(C)C)cc1 (centres undefined),24%
CC(=O)C1=C(O)C(=O)N(C2CCCCC2)C1c1ccccc1 (centres undefined),6%
CN(CC(=O)NCCc1ccccc1)S(=O)(=O)c1cccs1,9%
C/C(Cl)=C\Cn1c(NCCCn2ccnc2)nc2c1c(=O)n(C)c(=O)n2C,0%
COc1cc(OC)c(OC)cc1CN1CCCC(C(=O)N2CCCCC2)C1 (centres undefined),0%
Oc1cccc(Cl)c1Cl,-2%
CCOC(=O)N1CCC2(CC1)C(C(=O)C13CC4CC(CC(C4)C1)C3)C2(C#N)C#N (centres undefined),68%
CC1=C(C(=O)Nc2ccccc2)C(c2ccccc2)N2C(=O)CSC2=N1 (centres undefined),18%
COc1ccccc1CNc1ncncc1-c1cccc(NS(C)(=O)=O)c1,20%
CC(C)Cn1c(CN(C)Cc2ccccc2)nc2c1c(=O)n(C)c(=O)n2C,9%
COc1ccccc1NC(=O)CC(=O)CSc1nnc(-c2ccc(C)cc2)n1C,41%
C[N+](C)(C)c1ncnc2c1ncn2[C@@H]1CCCCO1,6%[5.75 µM]
Cc1ccc2oc(-c3ccccc3)c(O)c(=O)c2c1,-13%
CSCCC(NC(=O)C1CCC(C)CC1)C(=O)NCCN1CCOCC1 (centres undefined),-7%
Cc1cccc(N2CC(C)Cn3c2nc2c3c(=O)n(CC(=O)OCc3ccccc3)c(=O)n2C)c1 (centres undefined),81%
CCS(=O)(=O)c1ccc2oc(SCC(=O)NCCC3=CCCCC3)nc2c1,43%
N=c1nc(SCCC(=O)O)ss1,-10%
COc1ccc(C2(C(=O)Nc3ccc(C(=O)N4CCOCC4)cc3)CCOCC2)cc1,15%
O=C(O)C1CSC2(c3ccc4c(c3)OCCO4)CCC(=O)N12 (centres undefined),-7%

Brought forward from above: 3 entries, followed by the next part.
mol,AmpC nodet inh
N=c1nc(SCCC(=O)O)ss1,-10%
COc1ccc(C2(C(=O)Nc3ccc(C(=O)N4CCOCC4)cc3)CCOCC2)cc1,15%
O=C(O)C1CSC2(c3ccc4c(c3)OCCO4)CCC(=O)N12 (centres undefined),-7%
CNc1csc(C)c(C)c1=O,-1%
CC1(C)CC(=O)C=C(Nc2ccc(S(N)(=O)=O)cc2)C1,-5%
CN(C)Cc1ccccc1-c1cc(N(C)C)ncn1,-7%
O=C(O)CCCC(=O)NCCCCc1ccccc1,-6%
CCC(C)(C)NC(=O)C(c1cccn1C)N(C(=O)Cn1nnc2ccccc21)c1ccc(F)cc1 (centres undefined),37%
COC(=O)CSc1nc(C(C)C)nc2ccccc12,18%
O=C(Cn1c(-c2ccc(Cl)cc2)noc1=O)N1CCN(c2ccccc2F)CC1,17%
CC(=O)NCC(=O)N(c1ccccc1)C1(C(=O)NC2CCCCC2)CCCCC1,58%
Cc1cc(OCC(=O)NCc2nc(-c3ccccc3)no2)c(C)cc1Br,3%
CCOC(=O)CNC(=O)c1cnn2cccnc12,-4%
CN(C(=O)c1ccc2c(=O)n3c(nc2c1)CCCCC3)c1ccccc1,40%
COc1ccccc1-n1c(SCC(=O)N2CCCCC2)nnc1-c1ccccc1O,46%
C[N+](C)(C)CCCSc1nc2ccccc2[nH]1,-9%[5.75 µM]
COC(=O)CCSc1nccn1Cc1ccccc1,3%
COc1ccc(-c2noc(-c3ccccc3Cl)n2)cc1OC,21%
COc1ccc(NC(=O)CSc2nnc(-c3ccccn3)n2N)cc1,-5%
COC(=O)CCC(=O)Nc1ccc(C)cc1OC(=O)CCC(=O)OC,1%
CC(=O)c1cccc(NC(=O)c2ccc(NS(C)(=O)=O)cc2)c1,-3%
CCCCNC(=O)C1c2cc(OC)c(OC)cc2C(=O)N(C)C1c1ccc(OC)cc1 (centres undefined),52%
CN(C)c1nc(OCC(=O)NC(C)(C)C)nc(N(C)C)n1,0%

Individual results from the entries so far:
CN(C(=O)c1ccc2c(=O)n3c(nc2c1)CCCCC3)c1ccccc1 | AmpC nodet inh = 40%
COc1ccccc1-n1c(SCC(=O)N2CCCCC2)nnc1-c1ccccc1O | AmpC nodet inh = 46%
CCC(C)(C)NC(=O)C(c1cccn1C)N(C(=O)Cn1nnc2ccccc21)c1ccc(F)cc1 (centres undefined) | AmpC nodet inh = 37%
CNc1csc(C)c(C)c1=O | AmpC nodet inh = -1%
O=C(Cn1c(-c2ccc(Cl)cc2)noc1=O)N1CCN(c2ccccc2F)CC1 | AmpC nodet inh = 17%
CC(=O)NCC(=O)N(c1ccccc1)C1(C(=O)NC2CCCCC2)CCCCC1 | AmpC nodet inh = 58%
C[N+](C)(C)CCCSc1nc2ccccc2[nH]1 | AmpC nodet inh = -9%[5.75 µM]

(cont.)
mol,AmpC nodet inh
Cc1cc(C)nc(Sc2nc(C)nc3c2oc2ccccc23)n1,98%
COc1cccc(C(=O)N(Cc2ccco2)Cc2cc3cccc(C)c3[nH]c2=O)c1,40%
Cc1cccc(NC(=O)C2CCCN(C(=O)Nc3ccccc3)C2)c1C (centres undefined),3%
COC(=O)CCCCC1SCC(NC(=O)OC)C1NC(=O)OC (centres undefined),-7%
COc1ccccc1CNC(=O)C1CCN(S(C)(=O)=O)CC1,-8%
CCc1ccc(-c2nc(CN3CCCC(C(=O)NCCc4ccc(OC)c(OC)c4)C3)c(C)o2)cc1 (centres undefined),142%
O=C(NCc1nnc(SCC(=O)N2CCCC2)o1)c1c(F)cccc1Cl,2%
Cc1nonc1NC(=O)CSc1nnc(-c2ccoc2C)n1CC(C)C,24%
COc1cccc(-c2nn(C)c3sc(C(=O)NCc4ccc(C)o4)cc23)c1,48%
O=C1CN=C(Nc2cccc(C(F)(F)F)c2)N1C1CCCC1,18%
CCOC(=O)c1cccc(NC(=O)c2cnc3ccccc3n2)c1,103%
O=C(O)c1ccc2[nH]c3c(c2c1)CSCC3,-3%
O=C(NCCN1CCOCC1)c1cn(CCc2ccccc2)nn1,9%
c1ccc(-c2ccc(OCCOCCn3cncn3)cc2)cc1,85%

Not a retest: entries from further up.
mol,AmpC nodet inh
O=C(NCCN1CCOCC1)c1cn(CCc2ccccc2)nn1,9%
c1ccc(-c2ccc(OCCOCCn3cncn3)cc2)cc1,85%
